HSV augment – HSV replication enhancement; HSV replication augmentation in cells, fold increase; maximum fold increase; 220,000 tested, 0.005% active; AID 1956;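 active = peak rise of 1.5-fold or more in the series; inconclusive = self-fluorescent or not available for retest; tested in PC3 cells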;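 note: first round at 10 µM; read as green reporter fluorescence; hits show the peak of a series up to 25 µM; 1 = signal of infected wells without compound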
GALR2 ag – GALR2 (human) receptor agonism. O43603. 140,000 tested, 0.48% active. GALR2-expressing cells, agonist activation read-out. activation, %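 (tested at 5 µM)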. AID 803;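 active = above mean plus 3 SD of all compounds, about 5% in these data, not always enough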;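 note: 0% = vehicle buffer wells and 100% = reference agonist at full effect; tested in CHO reporter cells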
PKD1 kinase inh – blocks activity of human protein kinase D1. inhibition, %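 (about 10 µM by stock and volumes)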. PKD1 kinase fluorescence polarization assay. 200,000 tested, 0.056% active. Q15139;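 active = inhibition of 50% or more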;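 note: controls were vehicle for no effect and a reference inhibitor for full effect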
Target sequence (Q15139 whole entry, looked up): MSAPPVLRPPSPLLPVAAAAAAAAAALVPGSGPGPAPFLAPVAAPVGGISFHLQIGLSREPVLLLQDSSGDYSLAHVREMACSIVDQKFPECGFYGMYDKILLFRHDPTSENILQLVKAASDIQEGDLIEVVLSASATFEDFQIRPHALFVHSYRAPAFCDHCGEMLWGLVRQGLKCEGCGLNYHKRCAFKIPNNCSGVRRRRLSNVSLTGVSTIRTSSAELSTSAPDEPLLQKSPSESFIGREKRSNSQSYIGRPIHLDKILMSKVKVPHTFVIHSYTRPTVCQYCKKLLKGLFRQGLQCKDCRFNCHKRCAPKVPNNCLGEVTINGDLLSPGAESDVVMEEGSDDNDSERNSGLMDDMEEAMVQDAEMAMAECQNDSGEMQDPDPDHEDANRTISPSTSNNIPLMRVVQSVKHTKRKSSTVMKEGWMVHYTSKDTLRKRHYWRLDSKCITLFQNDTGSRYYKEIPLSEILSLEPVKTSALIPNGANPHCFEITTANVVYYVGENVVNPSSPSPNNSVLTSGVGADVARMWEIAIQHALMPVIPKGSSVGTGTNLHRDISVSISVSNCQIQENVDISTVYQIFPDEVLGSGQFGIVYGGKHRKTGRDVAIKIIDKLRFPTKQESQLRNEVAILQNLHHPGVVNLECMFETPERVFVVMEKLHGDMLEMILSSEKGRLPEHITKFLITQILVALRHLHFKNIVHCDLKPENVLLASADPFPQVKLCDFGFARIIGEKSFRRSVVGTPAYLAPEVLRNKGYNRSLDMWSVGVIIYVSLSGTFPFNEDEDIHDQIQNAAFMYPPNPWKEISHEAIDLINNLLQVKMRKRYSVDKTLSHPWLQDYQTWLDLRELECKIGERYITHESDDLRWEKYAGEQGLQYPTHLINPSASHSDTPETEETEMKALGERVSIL
INS promoter inh – TRM-6 insulin promoter activity inhibition; AID 1273; inhibition, % at 2 µM; 130,000 tested, 0.9% active; TRM-6 cells (human fetal islet line), insulin promoter-eGFP reporter, imaging; reporter expression induced with tamoxifen;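 active = inhibition above the mean plus 3 SD, with well images judged a real hit on visual review, cut at about 60% in these data, passing the limit was not always enough; inconclusive = inhibition over the cutoff but images rejected on review; inactive = inhibition not above the cutoff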
RGS16-Gao – regulators of human RGS16-Galphao interaction; binding response (% of control), % at 10 µM; AID 1441; 220,000 tested, 0.38% active; bead-based flow cytometry RGS16-Galphao binding, fluorescence; actives lie on both sides;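 active = below 25% or above 175%, edge rows of some plates excepted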;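 note: Galphao activated by GDP with aluminum fluoride before binding; 100% = wells without compound and 0% = beads without RGS; some results beyond the cut were filed as inactive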
INS promoter inh cell count – also measured in INS promoter inh; calls as there; normalized cell count, %; measured here: cell count, toxicity; reference of the scale not given here;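 cells exposed to compound for 48 h; stained nuclei by imaging scaled within each plate; lower means fewer cells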
HSV augment primary fold – further read-out of HSV augment, marked with its call; fold increase; compound at 10 µM; measured here: primary screen fold increase 10 uM; tested in PC3 cells;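 GFP signal in the first replicate; 1 = infected wells without compound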
An asterisk follows results filed as active; i = inactive; ? = inconclusive; . = not tested or not shown.

SMILES	HSV augment	HSV augment primary fold	GALR2 ag	PKD1 kinase inh	INS promoter inh	INS promoter inh cell count	RGS16-Gao
O=c1c2ccccc2ncn1Cc1nc2ccccc2s1	i	0.97	-0.6	-6	.	.	96
CCOC(=O)CC1C(=O)NCCN1c1nc2ccc(C)cn2c(=O)c1/C=C1\SC(=S)N(C(C)CC)C1=O (stereo unspecified)	?	.	.	.	.	.	104
Cc1cc(C)c2cc(C(c3nnnn3C3CCCC3)N3CCOCC3)c(=O)[nH]c2c1 (stereo unspecified)	i	0.79	-2.2	-13	.	.	89
CCN(CC)C(=O)Cn1cc(S(=O)(=O)CC(=O)NCc2ccc3c(c2)OCO3)c2ccccc21	i	1	.	-4	.	.	121
COc1cc(OC)cc(C(=O)Nn2cc(C(=O)Nc3ccccc3F)c3ccccc3c2=O)c1	i	1.1	-2.3	6	31	71	22
CC(C)(O)C#CC#CCN1CCOCC1	i	1	-2.3	7	.	.	108
CCCCCCCOc1ccc(OC(=O)c2ccncc2)cc1	i	0.74	0.6	-2	-32	154	99
O=C(c1ccc2c(c1)OCO2)N1CCc2ccccc2C1	i	0.92	0.1	-11	.	.	86
COCCCn1c(SCC(=O)N2CCCC(C)C2)nnc1-c1ccco1 (stereo unspecified)	i	1.1	-0.8	-15	.	.	101
O=C(Cn1nc(Cc2cccnc2)c2ccccc2c1=O)NCCCN1CCCC1=O	i	0.99	-1.0	-2	.	.	105
Cc1nn(-c2ccc(C(=O)O)cc2)c(C)c1Cl	i	0.72	.	-6	.	.	96
O=C(CCC1CCCC1)Nc1nnc(-c2ccc3c(c2)OCO3)s1	.	.	-1.9	4	.	.	81
N#Cc1c(N)nc2c(c1N)CC(CO)O2 (stereo unspecified)	.	.	-1.0	16	.	.	89
CCc1nnc(NC(=O)CCC(=O)N2CCN(Cc3ccccc3)CC2)s1	i	0.93	-2.0	-20	-13	70	101
Cc1nc(-c2ccc(NC(=O)CC(C)C)cc2)cs1	i	0.88	-2.2	-2	-36	92	113
C=CCOC(=O)/C(=C\c1ccccc1)NC(=O)c1ccco1	i	0.99	-0.3	5	-47	117	99
Cc1cc(C)n(CC(C)NCc2cn[nH]c2-c2ccc(C)c(C)c2)n1 (stereo unspecified)	i	0.9	.	-6	.	.	98
CS(=O)(=O)N(CC(=O)NCc1ccco1)Cc1ccc(Cl)cc1	.	.	-2.7	-4	-406	40	96
Cc1cc(=O)[nH]c(SCC(=O)c2ccccc2)c1C#N	i	1	-0.8	6	.	.	100
O=C(CCn1[nH]c(=O)c2ccccc2c1=O)OC1CCCCC1	i	0.85	-1.9	9	6	88	104
CCNc1nc(N)nc(Oc2ccc(C(=O)OC)cc2)n1	i	1.1	-1.9	-5	21	79	99
c1cnc(N2CCN(c3nc4ccccc4n4cnnc34)CC2)nc1	i	0.72	-1.8	-3	.	.	94
COc1cccc(NC(=O)N(Cc2ccco2)C(C)c2cccs2)c1 (stereo unspecified)	i	0.81	-0.4	-6	-46	99	107
Cc1ccc(CNC(=O)C2CC(=O)N(C3CCCCCC3)C2)cc1 (stereo unspecified)	i	0.9	.	-4	7	60	98
Cc1ccc2oc(-c3ccc(C)c(NC(=O)Cc4cccs4)c3)nc2c1	.	.	-0.6	14	.	.	110
SMILES	HSV augment	HSV augment primary fold	GALR2 ag	PKD1 kinase inh	INS promoter inh	INS promoter inh cell count	RGS16-Gao
S=c1nc(-c2ccco2)[nH][nH]1	i	1	-1.6	-3	9	86	103
Oc1ccc(/C=N/Nc2ccnc3cc(Cl)ccc23)c(O)c1	i	0.99	.	.	.	.	97
CCOc1ccc2nc(/N=C/c3c(C)[nH]n(-c4ccccc4)c3=O)sc2c1	i	0.93	-0.3	-6	.	.	101
Cc1cc(OCCCCN2C(=O)NC(C)(C)C2=O)cc(C)c1Cl	i	0.89	-2.2	-2	-42	125	102
Cc1nn(-c2cc(N3CCCCC3)ccc2N)c(=O)c2ccccc12	i	0.95	-1.5	-12	-207	80	122
CC(=O)c1ccc(NC(=O)C(C)Nc2ccc(Cl)cc2)cc1 (stereo unspecified)	i	1	.	-8	-18	119	103
COc1ccccc1N(CC(=O)NC(C)(C)C)S(=O)(=O)c1cccs1	i	1.1	-2.0	-5	-10	60	127
CSc1nc(C)c(CCOC(=O)c2ccccc2)c(=O)[nH]1	i	0.92	-3.1	-2	19	93	99
O=C(O)/C=C/C(=O)Nc1ccc(N2CCOCC2)nc1N1CCOCC1	i	1.1	.	.	.	.	94
CCn1c(SCC(=O)Nc2ccc3c(c2)OCCO3)nnc1-c1ccccn1	i	0.98	0.1	-4	.	.	99
Cn1c(/C=C/c2ccc([N+](=O)[O-])o2)nc2ccccc2c1=O	i	0.53	-1.3	-3	5	33	104
CCc1cccc(Nc2c3c(nc4ncnn24)CCC3)c1	i	1.1	.	-8	.	.	32
COc1ccccc1CNC(=O)C1CCC(CNc2c(N3CCCCC3)c(=O)c2=O)CC1 (stereo unspecified)	i	1	.	.	.	.	104
Cc1oc(-c2ccccc2F)nc1CS(=O)(=O)CC(=O)N1CCCCCC1	i	0.86	-1.8	-8	.	.	100
COc1cccc(C(=O)/C=C/Nc2ccc(S(=O)(=O)Nc3cnc4ccccc4n3)cc2)c1	?	.	-1.1	-12	.	.	93
COc1cc(C(=O)Oc2cc(C)cc(C)c2)cc(OC)c1OC	i	0.97	0.3	-5	-360	43	100
CC(NCCc1ccc(O)cc1)C(O)c1ccc(O)cc1 (stereo unspecified)	i	0.81	-1.8	-12	-29	126	105
Oc1cccc(/C=N/Nc2cc(N3CCOCC3)nc(N3CCOCC3)n2)c1	i	0.69	-1.6	1	11	114	74
CC1=NNC(=O)C1CCC(=O)N/N=C/C=C/c1ccccc1 (stereo unspecified)	i	0.8	-1.7	-2	0	118	101
C=CCn1c(SCC(=O)NCc2ccc3c(c2)OCO3)nnc1C1CCCCC1	i	1	-0.8	-11	-15	61	100
Cc1onc(-c2ccccc2)c1C(=O)Nc1ccc(Cl)cn1	i	0.99	.	-7	.	.	109
COc1cc(/C=N/NC(=S)NC(C)C)ccc1OCC(=O)Nc1c(C)cc(C)cc1C	i	0.94	-0.8	-7	33	157	103
CSc1nnc(-c2ccccc2)c(=O)[nH]1	i	1.1	-1.9	-2	-14	121	107
Cc1ccc2nc(-c3cccnc3)c(NC3CCCC3)n2c1	i	0.98	-0.6	-5	19	144	54
C=CCc1cccc2cc(C(=O)NC3CCCCC3)c(=O)oc12	i	1.1	.	-7	-13	95	80

13 consecutive records already listed:
SMILES	HSV augment	HSV augment primary fold	GALR2 ag	PKD1 kinase inh	INS promoter inh	INS promoter inh cell count	RGS16-Gao
COc1ccccc1CNC(=O)C1CCC(CNc2c(N3CCCCC3)c(=O)c2=O)CC1 (stereo unspecified)	i	1	.	.	.	.	104
Cc1oc(-c2ccccc2F)nc1CS(=O)(=O)CC(=O)N1CCCCCC1	i	0.86	-1.8	-8	.	.	100
COc1cccc(C(=O)/C=C/Nc2ccc(S(=O)(=O)Nc3cnc4ccccc4n3)cc2)c1	?	.	-1.1	-12	.	.	93
COc1cc(C(=O)Oc2cc(C)cc(C)c2)cc(OC)c1OC	i	0.97	0.3	-5	-360	43	100
CC(NCCc1ccc(O)cc1)C(O)c1ccc(O)cc1 (stereo unspecified)	i	0.81	-1.8	-12	-29	126	105
Oc1cccc(/C=N/Nc2cc(N3CCOCC3)nc(N3CCOCC3)n2)c1	i	0.69	-1.6	1	11	114	74
CC1=NNC(=O)C1CCC(=O)N/N=C/C=C/c1ccccc1 (stereo unspecified)	i	0.8	-1.7	-2	0	118	101
C=CCn1c(SCC(=O)NCc2ccc3c(c2)OCO3)nnc1C1CCCCC1	i	1	-0.8	-11	-15	61	100
Cc1onc(-c2ccccc2)c1C(=O)Nc1ccc(Cl)cn1	i	0.99	.	-7	.	.	109
COc1cc(/C=N/NC(=S)NC(C)C)ccc1OCC(=O)Nc1c(C)cc(C)cc1C	i	0.94	-0.8	-7	33	157	103
CSc1nnc(-c2ccccc2)c(=O)[nH]1	i	1.1	-1.9	-2	-14	121	107
Cc1ccc2nc(-c3cccnc3)c(NC3CCCC3)n2c1	i	0.98	-0.6	-5	19	144	54
C=CCc1cccc2cc(C(=O)NC3CCCCC3)c(=O)oc12	i	1.1	.	-7	-13	95	80

(further entries)
SMILES	HSV augment	HSV augment primary fold	GALR2 ag	PKD1 kinase inh	INS promoter inh	INS promoter inh cell count	RGS16-Gao
O=C(c1cnn2c(C(F)F)cc(-c3ccccc3)nc12)N1CCN2CCCC2C1 (stereo unspecified)	i	0.92	-2.6	2	-105	93	100
O=C(CNS(=O)(=O)c1ccc(Br)s1)N1CCN(c2ncccn2)CC1	i	0.84	-0.8	-2	62	90	97
O=C(Oc1cccc(C(=S)N2CCOCC2)c1)c1cc([N+](=O)[O-])cc([N+](=O)[O-])c1	i	1	.	-10	.	.	106
Cn1c(=NC(=O)c2ccccc2[N+](=O)[O-])sc2cccc(F)c21	i	0.95	.	.	.	.	107
Cc1cc(C)c(C#N)c(N2CCCC(C(N)=O)C2)n1 (stereo unspecified)	i	1.2	-1.1	-12	0	149	96
CC1=C(C(=O)Nc2ccccc2)C(c2ccc(C)cc2)N=C(Nc2nc3ccccc3o2)N1 (stereo unspecified)	i	0.51	6.3	3	.	.	96
CCN(CC)c1ccc(-c2nc3cnccn3c2NC2CCCC2)cc1	i	0.9	0.1	0	-56	258	100
COc1ccc(-c2nnsc2N2C(=O)c3ccccc3C2=O)cc1	i	0.88	.	.	.	.	101
CCOC(=O)c1c(-c2ccc(C)o2)csc1NC(=O)CN1CCC(C(N)=O)CC1	i	0.92	.	-1	.	.	97
O=C(CCN1CCCC1Cc1ccccc1)c1ccc2c(c1)OCCO2 (stereo unspecified)	.	.	-0.3	5	18	168	108
Cc1ccc(CNC(=O)CCNS(=O)(=O)c2cccs2)cc1	i	0.96	-1.8	-11	7	79	105
CCc1ccc(NC(=O)c2cnn(-c3ccccc3)c2C)cc1	i	0.74	0.2	1	.	.	112
CCCCC(=O)Nc1cccc(NC(=O)C(C)C)c1	i	1.1	-0.3	-8	22	85	93
Cc1ccc(S(=O)(=O)NCCc2ccncc2)cc1C	i	0.97	.	13	25	110	97
CCOC(=O)c1c(C)nc2sc3c(c2c1-c1ccc(OC)cc1)NC(c1ccccc1)NC3=O (stereo unspecified)	i	1	1.1	10	40	115	102
CCC(=Cc1ccc(CC)cn1)CC	i	1	.	.	.	.	94
Cc1cc(C)c(NC(=O)CN2C(=O)NC3(CCCCC3)C2=O)c(Cl)c1	i	0.85	-2.6	-3	.	.	102
CCOc1ccc(-c2c(C(=O)N/N=C/c3ccc(OC)cc3)nnn2-c2nonc2N)cc1	i	0.92	0.9	-6	-8	86	108
CCOC(=O)c1c(NCc2ccc3c(c2)OCO3)c2ccccc2[nH]c1=O	i	1	-1.2	-14	-8	200	100
CC(=O)c1c(C)nn(C(=O)c2cccs2)c1C	i	1	-2.6	-7	.	.	101
NC(=O)c1cc([N+](=O)[O-])cc2c1C=Cc1ccccc1O2	i	0.89	.	-4	0	168	105
CC(C)N(C)NC(=S)Nc1ccccc1	i	1	1.1	1	45	75	85
Cc1c(Cl)ccc2c1NC(=O)[C@]21[C@@H]2C(=O)N(Cc3ccccc3)C(=O)[C@@H]2[C@@H]2CCCN21	i	0.75	-1.8	-6	-36	88	106
C(=N\Nc1nc2ccccc2[nH]1)/c1cccc2nccnc12	i	0.71	.	.	.	.	99
Cc1ccc(N2C(=O)c3ccc(C(=O)Nc4cccnc4)cc3C2=O)c(C)c1	i	1	-0.6	4	-3	96	266
SMILES	HSV augment	HSV augment primary fold	GALR2 ag	PKD1 kinase inh	INS promoter inh	INS promoter inh cell count	RGS16-Gao
CC(C)c1ccc(/C=N/Nc2cc(N3CCOCC3)nc(N3CCOCC3)n2)cc1	i	0.7	0.3	3	36	145	110
Cc1cc(C)n(S(=O)(=O)c2cc(Cl)ccc2Cl)n1	i	1.1	-1.4	1	.	.	104
CC(C)N1CC=C2C(C#N)=C(N)C(C#N)(C#N)C(c3ccccc3)C2C1 (stereo unspecified)	?	.	0.7	16	-70	60	100
COc1cc2c(cc1OC)CN(CC(=O)Nc1ccccc1C#N)CC2	i	0.91	-1.7	-2	0	201	100
CC(C)CN(C(=O)COC(=O)CCc1c[nH]c2ccccc12)C1CCS(=O)(=O)C1 (stereo unspecified)	i	0.91	-2.3	1	.	.	103
C=C(C)C1CC=C(C)/C(=N/NC(=O)COc2cccc(C)c2)C1 (stereo unspecified)	i	0.84	0.0	6	25	159	104
COc1ccc(C(C(=O)NC2CCCC2)N(C(=O)c2ccco2)c2ccc(OC)c(OC)c2)cc1 (stereo unspecified)	i	1	-0.5	-5	-306	109	87
Cc1nn2cc(-c3ccc(Cl)cc3)cnc2c1Br	i	0.82	.	-3	18	108	99
CCN1CCN(C(=S)NC(=O)/C=C/c2cccs2)CC1	i	0.98	.	-5	-35	51	92
